Screening data as filed in PubChem.
Furin inhibitor = human furin inhibition; inhibition, % at 30 µM; 220,000 compounds, 0.061% hits; AID 463115; P09958; purified furin, fluorogenic substrate cleavage; in the data active = inhibition above about 25%; note: inactives centre near -15
Cl transport mod = KCC2 (human) Cl- transport modulation; Q9H2X9; KCC2 cells, thallium flux FluoZin-2 fluorescence; B-score of Tl+ flux slope (higher = more flux/activation; lower = inhibition) at 10 µM; 190,000 compounds, 2.2% hits; AID 1456;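 active = thallium flux slope and its plate-corrected score both differing from the plate sample mean at a set confidence after two filtering rounds, in either direction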;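 note: slope of fluorescence scaled to starting intensity during 10 to 20 s after thallium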
Target sequence (Q9H2X9 whole entry, looked up): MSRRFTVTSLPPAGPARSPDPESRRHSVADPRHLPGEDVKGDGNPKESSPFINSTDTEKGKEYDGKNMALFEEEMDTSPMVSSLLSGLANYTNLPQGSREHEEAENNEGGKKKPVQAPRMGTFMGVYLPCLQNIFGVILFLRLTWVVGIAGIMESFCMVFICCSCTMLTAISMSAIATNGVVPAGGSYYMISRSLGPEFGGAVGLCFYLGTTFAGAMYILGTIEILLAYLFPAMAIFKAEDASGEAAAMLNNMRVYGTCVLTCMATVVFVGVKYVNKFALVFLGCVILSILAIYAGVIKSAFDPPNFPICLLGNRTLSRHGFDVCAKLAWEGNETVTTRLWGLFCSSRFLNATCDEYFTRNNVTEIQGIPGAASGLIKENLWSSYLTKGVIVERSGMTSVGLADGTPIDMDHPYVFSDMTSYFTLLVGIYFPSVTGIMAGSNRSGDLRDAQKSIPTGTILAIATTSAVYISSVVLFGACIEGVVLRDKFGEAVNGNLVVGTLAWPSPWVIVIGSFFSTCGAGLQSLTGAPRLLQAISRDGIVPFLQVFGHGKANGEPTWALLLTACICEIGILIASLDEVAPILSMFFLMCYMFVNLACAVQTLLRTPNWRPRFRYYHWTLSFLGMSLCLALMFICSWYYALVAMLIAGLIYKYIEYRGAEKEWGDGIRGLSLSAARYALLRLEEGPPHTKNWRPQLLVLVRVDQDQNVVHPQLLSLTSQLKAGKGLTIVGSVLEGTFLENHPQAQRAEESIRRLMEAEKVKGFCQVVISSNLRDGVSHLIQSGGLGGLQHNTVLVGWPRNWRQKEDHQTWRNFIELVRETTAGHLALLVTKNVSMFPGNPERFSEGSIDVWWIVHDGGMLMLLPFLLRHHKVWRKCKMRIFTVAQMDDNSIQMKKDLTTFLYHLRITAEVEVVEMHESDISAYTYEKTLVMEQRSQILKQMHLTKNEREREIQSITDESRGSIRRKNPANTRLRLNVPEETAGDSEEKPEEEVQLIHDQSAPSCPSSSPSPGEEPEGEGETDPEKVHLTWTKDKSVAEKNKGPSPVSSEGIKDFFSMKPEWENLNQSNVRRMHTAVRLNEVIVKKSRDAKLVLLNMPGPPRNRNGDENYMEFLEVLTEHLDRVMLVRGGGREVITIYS
PERK inh = inhibitors of human PERK kinase | CHO PERK-DD fusion, SEAP luminescence translation reporter | 220,000 compounds, 0.17% hits | inhibition, % at 5.6 µM | Q9NZJ5;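 active = inhibition above the mean inhibition of all tested compounds plus 3 SD, set separately per screening campaign, cut at about 2.9% in these data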;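 note: PERK kinase domain activated by AP20187 dimerizer at 100 nM; 0% = DMSO with dimerizer and 100% = rapamycin at 8.4 µM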
FXIIa inh = blocks human coagulation factor XIIa protease activity; P00748; inhibition, % at 5 µM; 220,000 compounds, 0.3% hits; purified FXIIa, Boc-QGR-AMC fluorogenic substrate, 2 h; AID 800; in the data active = inhibition above about 40%;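 note: 0% = enzyme with no compound and 100% = blank without enzyme; many of its hits are not listed in these tables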
FXIa inh = inhibitors of human coagulation factor XIa; inhibition, % at 5 µM; purified FXIa, Boc-Glu-Ala-Arg-AMC fluorogenic substrate; 220,000 compounds, 0.14% hits;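 active = inhibition of at least 40%; inactive = inhibition below 40%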;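 note: fluorescence of freed AMC excited at 355 nm; 0% = enzyme without compound and 100% = no enzyme blank; many of its hits are not listed in these tables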
p97 ATPase inh = human p97 ATPase inhibition; P55072; recombinant p97 ATPase, Kinase-Glo ATP luminescence, 3 h; inhibition, % at 8 µM; 220,000 compounds, 0.42% hits; AID 1481; in the data active = inhibition above about 15%;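 note: 0% = DMSO vehicle and 100% = wells lacking enzyme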
thrombin 1536 = blocks human thrombin protease activity; alpha-thrombin, Boc-VPR-AMC fluorogenic substrate cleavage; inhibition, % at 5 µM; 220,000 compounds, 0.26% hits;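 active = inhibition at or above 40%; inactive = inhibition below 40%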;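 note: 0% = enzyme with no compound and 100% = wells without enzyme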
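System – human alpha-thrombin · Medium – pH 7.5 Tris (50 mM) with NaCl 150 mM, Tween 20 0.05% · Compound – single-point dosing at 5 µM, 0.2% DMSO · Incubation – enzyme reaction carried out at room temperature · Technique – fluorescence of released AMC, ex 355 nm, em 460 nm · Read-out basis – % inhibition of thrombin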
Wee1 degr inh = inhibitors of human Wee1 degradation; P30291; reporter increase, % at 5 µM; HeLa Luc-Wee1K328M stability, luciferase luminescence; 100% = proteasome inhibitor MG132 effect; 220,000 compounds, 1.2% hits;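 active = activation above the mean of all tested compounds plus 3 SD, set per screening run, cut at about 8.8% in these data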;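 note: cells exposed to compound for 20 h before luminescence read; 0% = DMSO alone and 100% = MG132 at 30 µM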
Starred values were filed as active, the others as inactive; [ ] = another dose, or the depositor's remark.

Results for CCc1ccc(OCCCOc2ccc(C=O)cc2)cc1 ?
Furin inhibitor: -13[20 µM]; Cl transport mod: 0.41; PERK inh: 0.5; FXIIa inh: 10; FXIa inh: -1; p97 ATPase inh: -5; thrombin 1536: -3; Wee1 degr inh: 1

Results for Clc1ccc(-c2nnc(COc3ncnc4ccccc34)o2)cc1 ?
Furin inhibitor: -25; Cl transport mod: -0.62; PERK inh: 0.2; FXIIa inh: 8; FXIa inh: -2; p97 ATPase inh: 2; thrombin 1536: 1; Wee1 degr inh: -1

Results for C/C(=N/OCO/N=C(/C)c1ccc(F)cc1)c1ccc(F)cc1 ?
Furin inhibitor: -13; Cl transport mod: 1.4; PERK inh: 0.6; FXIIa inh: -4; FXIa inh: -10; p97 ATPase inh: -4; thrombin 1536: -10; Wee1 degr inh: 2

What do the screens show for `CCOC(=O)/C(=C\c1ccc([N+](=O)[O-])o1)NC(=O)c1ccccc1`?
Furin inhibitor: -2[20 µM]; PERK inh: 0.9; FXIIa inh: 20; FXIa inh: 9; p97 ATPase inh: -6; thrombin 1536: 5; Wee1 degr inh: -2

How did CCOc1cc(/C=N/n2cnnc2)ccc1OC(=O)c1cccc([N+](=O)[O-])c1 do in these assays?
Furin inhibitor: -19; Cl transport mod: -1.8; PERK inh: 2.7; FXIIa inh: -8; FXIa inh: -8; p97 ATPase inh: 3; thrombin 1536: 0; Wee1 degr inh: -1

What do the screens show for `O=[N+]([O-])c1ccc(-c2nc(-c3cccs3)c(-c3cccs3)[nH]2)cc1`?
Furin inhibitor: 0[20 µM]; Cl transport mod: 1.6; PERK inh: -1.4; FXIIa inh: 18; FXIa inh: 5; p97 ATPase inh: 14; thrombin 1536: 2; Wee1 degr inh: 0

What do the screens show for `CCOC(=O)c1c(C)n(C)c2ccc(OC)c(NC(=O)CN3CCN(C(=O)c4ccco4)CC3)c12`?
Furin inhibitor: -11; Cl transport mod: 0.38; PERK inh: -1.6; FXIIa inh: 22; FXIa inh: -4; p97 ATPase inh: -2; thrombin 1536: -12; Wee1 degr inh: 5

How did COCCNC(=O)C(c1ccncc1)N(Cc1ccccc1)C(=O)Cn1nnc2ccccc21 (stereo unspecified) do in these assays?
Furin inhibitor: -15; Cl transport mod: 0.56; PERK inh: 1.4; FXIIa inh: 10; FXIa inh: -1; p97 ATPase inh: -1; thrombin 1536: 4; Wee1 degr inh: -1

Results for Cc1ccc(CNc2ccc(O)cc2)cc1 ?
Furin inhibitor: 11[20 µM]; Cl transport mod: 0.65; PERK inh: 0.7; FXIIa inh: 2; FXIa inh: 1; p97 ATPase inh: 8; thrombin 1536: 2; Wee1 degr inh: -3

How did COc1ccc(/C=N/NC(=O)CO/N=C(\C)c2cccs2)cc1 do in these assays?
Furin inhibitor: -14[20 µM]; Cl transport mod: -0.046; PERK inh: 0.5; FXIIa inh: -5; FXIa inh: -8; p97 ATPase inh: -2; thrombin 1536: -4; Wee1 degr inh: 0

How did Cc1cc(/C=N\NC(=O)COc2cccc3cccnc23)c(C)n1-c1ccccc1 do in these assays?
Furin inhibitor: -14; Cl transport mod: -2.2; PERK inh: 0.1; FXIIa inh: 6; FXIa inh: -1; p97 ATPase inh: -3; thrombin 1536: -7; Wee1 degr inh: 2

How did COc1ccc(Nc2nc(N)nc(CCl)n2)cc1 do in these assays?
Furin inhibitor: -12; Cl transport mod: 1; PERK inh: -0.4; FXIIa inh: 8; FXIa inh: 0; p97 ATPase inh: -1; thrombin 1536: 5; Wee1 degr inh: 1

What do the screens show for `O=C1CC(N2CCN(c3nc4ccccc4s3)CC2)C(=O)N1c1cccc(F)c1` (stereo unspecified)?
Furin inhibitor: -7[20 µM]; Cl transport mod: -0.38; PERK inh: -0.2; FXIIa inh: 12; FXIa inh: 3; p97 ATPase inh: 1; thrombin 1536: 3; Wee1 degr inh: -1

What do the screens show for `CCC(=O)NC(=S)Nc1ccc(NC(=O)c2ccco2)c(Cl)c1`?
Furin inhibitor: -11; Cl transport mod: 0.21; PERK inh: -1.9; FXIIa inh: 3; FXIa inh: -4; p97 ATPase inh: -5; thrombin 1536: 5; Wee1 degr inh: 3

What do the screens show for `C=CCS(=O)(=O)N1CCC(CCOc2ccccc2)(C(=O)OCC)CC1`?
Furin inhibitor: -11; Cl transport mod: 0.022; PERK inh: -1.2; FXIIa inh: 7; FXIa inh: -2; p97 ATPase inh: -2; thrombin 1536: -6; Wee1 degr inh: 4

How did CN=C(Nc1cc(C)nn1-c1ccccc1)c1ccccc1F do in these assays?
Furin inhibitor: -4[20 µM]; Cl transport mod: -0.0015; PERK inh: -0.5; FXIIa inh: 17; FXIa inh: 3; p97 ATPase inh: 5; thrombin 1536: 5; Wee1 degr inh: -1

Results for CCCCOC(=O)C1=C(C)Nc2nnnn2C1c1ccc(OC)c(OC)c1OC (stereo unspecified) ?
Furin inhibitor: -20; PERK inh: -0.7; FXIIa inh: 9; FXIa inh: -6; p97 ATPase inh: 3; thrombin 1536: -7; Wee1 degr inh: -2

Results for CN(C(=O)COC(=O)c1cccnc1Nc1cccc(C(F)(F)F)c1)C1CCS(=O)(=O)C1 (stereo unspecified) ?
Furin inhibitor: -12; Cl transport mod: -1.9; PERK inh: -0.3; FXIIa inh: 3; FXIa inh: 7; p97 ATPase inh: -6; thrombin 1536: -1; Wee1 degr inh: -1

What do the screens show for `O=C(N/N=C/c1ccc2c(c1)OCO2)c1ccc(Br)o1`?
Furin inhibitor: -9; Cl transport mod: -0.094; PERK inh: -0.4; FXIIa inh: 8; FXIa inh: 2; p97 ATPase inh: -9; thrombin 1536: -2; Wee1 degr inh: 2

How did Cc1ccc(-c2noc(-c3ccoc3C)n2)cc1 do in these assays?
Furin inhibitor: -15; Cl transport mod: -0.018; PERK inh: 1.3; FXIIa inh: 3; FXIa inh: 2; p97 ATPase inh: 3; thrombin 1536: 2; Wee1 degr inh: 2

What do the screens show for `Cc1sc2c(c1C)CN(C(C)(C)C)CN2C(=O)c1ccccc1`?
Furin inhibitor: -7[20 µM]; Cl transport mod: 0.024; PERK inh: -0.8; FXIIa inh: 9; FXIa inh: 4; p97 ATPase inh: 2; thrombin 1536: 2; Wee1 degr inh: 3

Results for CCOc1ccccc1NC(=S)N(Cc1cc2ccc(C)cc2[nH]c1=O)CC1CCCN1CC (stereo unspecified) ?
Furin inhibitor: -15; Cl transport mod: -0.057; PERK inh: -0.5; FXIIa inh: 13; FXIa inh: 9; p97 ATPase inh: -4; thrombin 1536: 18; Wee1 degr inh: -1

How did CCOC(=O)Nc1ccc(Cc2ccncc2)cc1 do in these assays?
Furin inhibitor: -17; Cl transport mod: 1.3; PERK inh: 1.0; FXIIa inh: 3; FXIa inh: -2; p97 ATPase inh: 4; thrombin 1536: -9; Wee1 degr inh: 3

How did O=C(Cn1c2ccccc2c(=O)c2cc([N+](=O)[O-])ccc21)Nc1ccccc1Cl do in these assays?
Furin inhibitor: -1; Cl transport mod: 0.4; PERK inh: 0.7; FXIIa inh: 6; FXIa inh: -3; p97 ATPase inh: 0; thrombin 1536: -5; Wee1 degr inh: -2

How did O=C(O)C1C2C=CC(C2)C1C(=O)NCCC1=CCCCC1 (stereo unspecified) do in these assays?
Furin inhibitor: -15; PERK inh: 2.0; FXIIa inh: 5; FXIa inh: 4; p97 ATPase inh: 7; thrombin 1536: 1; Wee1 degr inh: -2

How did C=CCn1c(=S)[nH]c2scc(-c3ccco3)c2c1=O do in these assays?
Furin inhibitor: -30; Cl transport mod: 111*; PERK inh: 0.8; FXIIa inh: 8; FXIa inh: 0; p97 ATPase inh: 15*; thrombin 1536: 2; Wee1 degr inh: -3

What do the screens show for `CCC(C)(C)NC(=O)C(c1ccc(C)o1)N(Cc1cccs1)C(=O)Cn1nnc2ccccc21` (stereo unspecified)?
Furin inhibitor: -16; Cl transport mod: 1.9; PERK inh: -1.2; FXIIa inh: 3; FXIa inh: -2; p97 ATPase inh: -4; thrombin 1536: -3; Wee1 degr inh: -1

What do the screens show for `CCCC(C)NC(=O)c1cccc(Oc2ccccc2)c1` (stereo unspecified)?
Furin inhibitor: -23; Cl transport mod: -3.4; PERK inh: 1.1; FXIIa inh: 2; FXIa inh: -4; p97 ATPase inh: 1; thrombin 1536: 0; Wee1 degr inh: 5

How did N#Cc1nc(Cc2cccc3ccccc23)oc1N1CCN(c2ccccc2)CC1 do in these assays?
Furin inhibitor: -18[20 µM]; PERK inh: 0.3; FXIIa inh: 2; FXIa inh: -9; p97 ATPase inh: 7; thrombin 1536: -2; Wee1 degr inh: -1

How did CC1CCCC(C)N1C(=S)NCc1ccco1 (stereo unspecified) do in these assays?
Furin inhibitor: -13; Cl transport mod: 0.24; PERK inh: 1.8; FXIIa inh: 3; FXIa inh: 1; p97 ATPase inh: 2; thrombin 1536: -2; Wee1 degr inh: 0

How did CC(=O)Nc1ccc(S(=O)(=O)NC2(C(F)(F)F)C(=O)Nc3c2c(=O)[nH]c(=O)n3Cc2ccco2)cc1 (stereo unspecified) do in these assays?
Furin inhibitor: -19; Cl transport mod: -2; PERK inh: 0.3; FXIIa inh: 6; FXIa inh: -2; p97 ATPase inh: 0; thrombin 1536: -5; Wee1 degr inh: -1

What do the screens show for `O=C(O)CSCC(=O)NCc1ccc(Cl)cc1Cl`?
Furin inhibitor: -9; Cl transport mod: 0.26; PERK inh: 0.9; FXIIa inh: 15; FXIa inh: 8; p97 ATPase inh: -3; thrombin 1536: 15; Wee1 degr inh: 4

How did CCC(C)NC(=O)C1CCN(S(=O)(=O)c2cccnc2)CC1 (stereo unspecified) do in these assays?
Furin inhibitor: -14[20 µM]; Cl transport mod: 0.29; PERK inh: -0.5; FXIIa inh: 11; FXIa inh: -4; p97 ATPase inh: -5; thrombin 1536: -2; Wee1 degr inh: -3

How did CN(NS(=O)(=O)c1ccc(Cl)cc1)c1ncc(C(F)(F)F)cc1Cl do in these assays?
Furin inhibitor: -8; Cl transport mod: -0.35; PERK inh: 1.0; FXIIa inh: -1; FXIa inh: -5; p97 ATPase inh: -3; thrombin 1536: -6; Wee1 degr inh: 0

Results for O=C1/C(=C\c2ccc(C(F)(F)F)cc2)CSc2sccc21 ?
Furin inhibitor: -5; Cl transport mod: -0.73; PERK inh: -0.4; FXIIa inh: 8; FXIa inh: -8; p97 ATPase inh: -1; thrombin 1536: 1; Wee1 degr inh: 0

How did O=[n+]1cc(-c2ccccc2)n([O-])c2c1CCCCC2 do in these assays?
Furin inhibitor: -6; Cl transport mod: 0.35; PERK inh: 0.7; FXIIa inh: 11; FXIa inh: 2; p97 ATPase inh: -4; thrombin 1536: -2; Wee1 degr inh: 2

What do the screens show for `O=C(CSCc1ccc([N+](=O)[O-])cc1)NN=C1CCCCCC1`?
Furin inhibitor: -20[20 µM]; Cl transport mod: 0.1; PERK inh: 0.6; FXIIa inh: 14; FXIa inh: 7; p97 ATPase inh: 1; thrombin 1536: 3; Wee1 degr inh: 2

What do the screens show for `C=CCn1c(C(CC)CC(C)(C)O)n[nH]c1=S` (stereo unspecified)?
Furin inhibitor: -6; Cl transport mod: 2.1; PERK inh: 0.4; FXIIa inh: 8; FXIa inh: 2; p97 ATPase inh: -5; Wee1 degr inh: -5

Results for CN1C(=O)C(N=Nc2ccccc2C(=O)O)N(C)C1=S (stereo unspecified) ?
Furin inhibitor: -13; Cl transport mod: -4.7*; PERK inh: 0.1; FXIIa inh: 14; FXIa inh: 3; p97 ATPase inh: 3; thrombin 1536: 3; Wee1 degr inh: -1

What do the screens show for `NS(=O)(=O)c1ccc(NC(=O)c2ccccc2C(=O)N2CCCCC2)cc1`?
Furin inhibitor: -21; Cl transport mod: 1.9; PERK inh: 1.5; FXIIa inh: 5; FXIa inh: 6; p97 ATPase inh: -1; thrombin 1536: -9; Wee1 degr inh: 0

A portion of the library. The share of hits here may be higher or lower than overall.
